# Screening results (PubChem)
# CtBP-E1A blk = qHTS Assay for Inhibitors of the CtBP/E1A Interaction; 0.49% of 340,000 active; activity change, % (test concentration not listed); CtBP / adenovirus E1A interaction (AlphaScreen); AlphaScreen GST-E1A/His-CtBP binding, 1536-well; hits give low values; control for the full effect not named in the record; in the data active means activity change below about -65%; inconclusive means about -30% to -65%; inactive means above about -30%; note: compound concentration not given in the record
#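 In 5 uL wells, 23 nL compound meets equimolar GST-E1A and His-CtBP (5X stock 125 nM each) for 2 h, 37 °C. Beads (5X, 50 ug/mL) then 1 h, 37 °C, dark.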
# Six1-Eya2 blk = qHTS Assay for Inhibitors of the Six1/Eya2 Interaction. 0.56% of 360,000 active. AlphaScreen GST-Six1/His-Eya2 binding, biochemical; hits give low values; control for the full effect not named in the record. activity change, % (no concentration beside the values); in the data active = activity change below about -65%; inconclusive = about -30% to -65%; inactive = above about -30%; note: compound concentration not given in the record
# Target sequence (O00167 whole entry, looked up): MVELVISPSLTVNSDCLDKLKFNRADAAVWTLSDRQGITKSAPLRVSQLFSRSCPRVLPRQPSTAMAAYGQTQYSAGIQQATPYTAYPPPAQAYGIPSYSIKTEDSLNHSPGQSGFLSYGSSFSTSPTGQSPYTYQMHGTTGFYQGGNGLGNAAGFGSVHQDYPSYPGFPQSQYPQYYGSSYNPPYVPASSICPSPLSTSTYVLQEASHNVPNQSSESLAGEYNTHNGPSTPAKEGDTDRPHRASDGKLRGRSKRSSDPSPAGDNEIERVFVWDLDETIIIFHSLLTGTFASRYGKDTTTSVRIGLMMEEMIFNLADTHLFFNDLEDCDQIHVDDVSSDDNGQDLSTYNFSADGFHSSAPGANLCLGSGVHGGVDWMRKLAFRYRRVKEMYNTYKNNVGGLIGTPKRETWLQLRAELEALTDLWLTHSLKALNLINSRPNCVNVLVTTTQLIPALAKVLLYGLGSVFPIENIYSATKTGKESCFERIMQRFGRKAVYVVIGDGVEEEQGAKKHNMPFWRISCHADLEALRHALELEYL
# Target sequence (Q15475 whole entry, looked up): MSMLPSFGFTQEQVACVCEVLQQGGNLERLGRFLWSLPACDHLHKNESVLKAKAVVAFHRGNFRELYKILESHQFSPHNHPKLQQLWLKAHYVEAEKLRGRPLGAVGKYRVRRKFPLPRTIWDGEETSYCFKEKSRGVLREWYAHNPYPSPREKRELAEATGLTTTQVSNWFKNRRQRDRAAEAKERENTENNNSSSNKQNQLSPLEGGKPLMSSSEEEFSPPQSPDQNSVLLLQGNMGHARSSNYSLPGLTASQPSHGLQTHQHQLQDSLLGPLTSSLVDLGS
#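 AlphaScreen luminescence read after one hour at 37 °C in darkness. Pin-transferred compounds met GST-Six1 and His-Eya2 protein (5X stock 250 nM/500 nM) plus glutathione donor and Ni-chelate acceptor beads (5X, 50 ug/mL).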
# * marks the source's active call; other numbers are inactive results; u = inconclusive. % is set by controls: 0 for no effect and ±100 for the full control effect. These rows are one share of the data, so the mix of outcomes need not match the whole.
# Sample of the layout:
SMILES,CtBP-E1A blk,Six1-Eya2 blk
CC1(C(=O)Nc2ccc3c(c2)OCCO3)CSCC(=O)N1CCCN1CCOCC1 (stereo not drawn),-7.5,4.8
Cc1ccc(N2CCN(C(C(=O)Nc3c(C)cccc3C)c3cc4ccccc4o3)CC2)cc1 (stereo not drawn),-1.0,-0.3
CO[C@@H]1CN(C)C(=O)c2cc(NC(=O)NC3CCCCC3)ccc2OC[C@@H](C)N(CC2CCOCC2)C[C@@H]1C,7.6,5.8

# The list itself, repeating the preview:
SMILES,CtBP-E1A blk,Six1-Eya2 blk
CC1(C(=O)Nc2ccc3c(c2)OCCO3)CSCC(=O)N1CCCN1CCOCC1 (stereo not drawn),-7.5,4.8
Cc1ccc(N2CCN(C(C(=O)Nc3c(C)cccc3C)c3cc4ccccc4o3)CC2)cc1 (stereo not drawn),-1.0,-0.3
CO[C@@H]1CN(C)C(=O)c2cc(NC(=O)NC3CCCCC3)ccc2OC[C@@H](C)N(CC2CCOCC2)C[C@@H]1C,7.6,5.8
CCOC(=O)[C@]12CCCC=C1N(CCC1=CCCCC1)C(=O)[C@H](CC(=O)NCc1cccc(C(F)(F)F)c1)C2,-18.9,-2.7
CCOC(=O)[C@]12CCCC=C1N(CCC1=CCCCC1)C(=O)[C@H](CC(=O)N1CCN(C(=O)c3ccco3)CC1)C2,-6.3,-5.4
COCCCNC(=O)C[C@@H]1C[C@@]2(C(=O)OC)CCCCC=C2N(CCc2ccc(OC)c(OC)c2)C1=O,0.0,11.3
CCCCCCCCN1C(=O)[C@H](CC(=O)NCCCOCCCC)C[C@@]2(C(=O)OC)CC(C)(C)CC=C12,4.6,-0.4
COC(=O)C[C@H]1C=C[C@H](NC(=O)Nc2ccccc2)[C@@H](CO)O1,-2.4,8.2
COc1ccc(NC(=O)C(c2ccncc2)n2c(=O)c(-c3ccccc3)nc3ccccc32)cc1 (stereo not drawn),-2.5,-15.7
CC1(C)CC(Cc2ccc(C(F)(F)F)cn2)N(C(=O)OC(C)(C)C)C1 (stereo not drawn),0.0,11.2
COCCCNC(=O)C[C@@H]1C[C@@]2(C(=O)OC)CCCCC=C2N(Cc2ccc3c(c2)OCO3)C1=O,4.1,-2.3
Cc1cccc(C)c1NC(=O)C(c1ccc(C#N)cc1)n1c(=O)c(-c2ccccc2)nc2ccccc21 (stereo not drawn),u,-16.9
CSCCC(C(=O)NCc1ccccc1)n1c(C2CCN(C(C)=O)CC2)nc2ccccc21 (stereo not drawn),4.3,-1.2
COC(=O)[C@@]12C[C@@H](CC(=O)NCCC(C)C)C(=O)N(Cc3cccc4ccccc34)C1=CCC(C)(C)C2,15.1,-7.0
Nc1sc(Cc2ccccc2)cc1C(=O)c1c(-c2ccccc2)[nH]c2ccccc12,-8.9,-23.1
Cc1cccc(C)c1NC(=O)C1(C)CN(S(C)(=O)=O)CC(=O)N1Cc1cccs1 (stereo not drawn),27.3,33.0
COC(=O)[C@@]12C[C@@H](CC(=O)NCCc3ccccc3OC)C(=O)N(Cc3cccc4ccccc34)C1=CCC(C)(C)C2,-10.6,-6.4
COC(=O)[C@@]12C[C@@H](CC(=O)N3CCOCC3)C(=O)N(CCc3ccc(OC)c(OC)c3)C1=CCC(C)(C)C2,2.8,-0.1
COc1ccc(O)cc1CN1CCN(c2ncc(Cc3ccccc3)cn2)CC1,-11.6,-28.0
COC(=O)C1=CN(c2ccccc2OC)C(N)=C(C#N)C1c1cccc([N+](=O)[O-])c1 (stereo not drawn),2.0,-19.7
CC(C)N1C(=O)c2ccccc2NC(=O)C1C(=O)NCc1ccccc1 (stereo not drawn),-14.9,4.5
COc1ccc(S(=O)(=O)N[C@@H]2C=C[C@@H](CC(=O)N3CCc4ccccc4C3)O[C@@H]2CO)cc1,6.3,-3.2
Cc1cccc(C)c1NC(=O)C(c1ccncc1)N1CCN(C)CC1 (stereo not drawn),-3.7,13.3
CC(=O)C1=CCC(c2ccccc2)N(Cc2ccccc2)C1 (stereo not drawn),5.3,6.3
CCC(C(=O)NCc1ccccc1)n1c(C2CCN(C(C)=O)CC2)nc2ccccc21 (stereo not drawn),27.2,11.3

# A different layout for 3 compounds above:
> COc1ccc(O)cc1CN1CCN(c2ncc(Cc3ccccc3)cn2)CC1
- CtBP-E1A blk = -11.6
- Six1-Eya2 blk = -28.0
> COC(=O)C1=CN(c2ccccc2OC)C(N)=C(C#N)C1c1cccc([N+](=O)[O-])c1 (stereo not drawn)
- CtBP-E1A blk = 2.0
- Six1-Eya2 blk = -19.7
> CC(C)N1C(=O)c2ccccc2NC(=O)C1C(=O)NCc1ccccc1 (stereo not drawn)
- CtBP-E1A blk = -14.9
- Six1-Eya2 blk = 4.5

# (further entries)
SMILES,CtBP-E1A blk,Six1-Eya2 blk
COC(=O)C[C@@H]1C=C[C@@H](NC(=O)c2ccc3c(c2)OCO3)[C@@H](CO)O1,-1.5,-3.6
CCCCCCCCN1C(=O)[C@H](CC(=O)NCc2cccc(C(F)(F)F)c2)C[C@@]2(C(=O)OC)CC(C)(C)CC=C12,3.6,2.3
Cc1cccc(C)c1NC(=O)C(c1ccc(C#N)cc1)n1c(=O)c(-c2cc3ccccc3[nH]2)nc2ccccc21 (stereo not drawn),20.4,37.0
COc1ccc(N2c3ccccc3CN(Cc3ccccc3)[C@@H](C)[C@H]2Cc2ccc(-c3ccccc3)cc2)cc1,-4.5,-12.3
CC(=O)N1CCC(C(=O)N2c3ccccc3N=C(c3ccc(C(F)(F)F)cc3)C2C(=O)NC(C)C)CC1 (stereo not drawn),0.4,0.8
COC(=O)[C@@]12C[C@@H](CC(=O)N3CCCC3)C(=O)N(Cc3cccc4ccccc34)C1=CCC(C)(C)C2,-11.0,-14.1
COc1ccc(C(C(=O)NCc2ccccc2)n2c(=O)c(-c3cc4ccccc4[nH]3)nc3ccccc32)cc1 (stereo not drawn),24.7,54.9
Nc1sccc1C(=O)NC1CC1,-0.2,4.2
O=C(C(=O)N1CCC(Cc2ccccc2)CC1)c1cccc(Br)c1,-10.1,3.9
Cc1cc(C)c2cc(C#N)c(NCCNC(=O)c3cccnc3)nc2c1,4.3,-2.1
COc1ccc(OC)c(CN2C(=O)CSCC2(C)C(=O)NC(C)C)c1 (stereo not drawn),-2.2,2.9
Cc1cnc(C(=O)Nc2c(-c3ccccc3)[nH][nH]c2=O)cn1,0.0,2.5
COc1ccc(C(C(=O)NC2CCCCC2)n2c(=O)c(-c3ccco3)nc3ccccc32)cc1 (stereo not drawn),7.9,9.1
CC(C)NC(=O)C1(C)CSCC(=O)N1C1CCN(Cc2ccccc2)CC1 (stereo not drawn),1.9,-6.5
COc1ccc(C2=Nc3ccccc3N(C(=O)c3ccncc3)C2C(=O)NC(C)(C)C)cc1 (stereo not drawn),-0.6,-11.2
CC(C)(C)NC(=O)C(c1ccncc1)n1c(-c2ccc(C(F)(F)F)cc2)nc2ccccc21 (stereo not drawn),3.9,3.7
COc1ccc(CCN2C(=O)CSCC2(C)C(=O)Nc2ccc3c(c2)OCCO3)cc1OC (stereo not drawn),-0.4,-3.3
O=C(C[C@@H]1CC[C@@H]2[C@H](COC[C@@H](O)CN2Cc2cc(F)ccc2F)O1)NCc1ccc(F)cc1,-3.4,0.0
Cc1ccc(S(=O)(=O)N2C3CCCCC3O[C@H]2CC(=O)OCc2ccccc2)cc1 (stereo partly drawn),-0.5,1.0
COC(=O)C[C@@H]1C=C[C@@H](NC(=O)c2cccnc2)[C@@H](CO)O1,-16.4,13.6
Cc1ccc(S(=O)(=O)N2[C@H](CC(=O)c3ccc(F)cc3)OC[C@@H]2C)cc1,0.9,16.4
COCCCNC(=O)C[C@@H]1C[C@@]2(C(=O)OC)CC(C)(C)CC=C2N(CCc2ccc(OC)c(OC)c2)C1=O,-0.2,-6.7
CCCc1c(Cc2cccc(F)c2)ncn1Cc1cccc(-c2ccccc2)c1,9.4,22.0
Cc1ccc(S(=O)(=O)N2CC(CO)=CCC2c2ccccc2)cc1 (stereo not drawn),-14.1,6.5
Cn1cc([C@]2(O)C(=O)Nc3c(F)cccc32)c2ccccc21,-0.8,-2.2
# Going on with the list:
SMILES,CtBP-E1A blk,Six1-Eya2 blk
COCCCNC(=O)c1cc(Cc2ccccc2)sc1N,3.1,-8.3
COC(=O)[C@@]12C[C@@H](CC(=O)NCC34CC5CC(CC(C5)C3)C4)C(=O)N(CCc3ccc(OC)c(OC)c3)C1=CCC(C)(C)C2,1.7,-19.7
CCC(=O)Nc1ccc2c(c1)OC[C@@H](C)N(C(=O)c1ccccn1)C[C@@H](C)[C@@H](OC)CN(C)C2=O,6.1,-16.8
Cc1ccc(S(=O)(=O)N2C3CCCCC3O[C@H]2CC(=O)c2ccc(F)cc2)cc1 (stereo partly drawn),-14.2,9.4
CCCc1nc2ccccc2n1C(CC)C(=O)NC(C)(C)C (stereo not drawn),-10.4,3.6
COc1cccc(C(=O)Nc2ccc3c(c2)OC[C@H](C)N(CCc2ccccc2)C[C@@H](C)[C@@H](OC)CN(C)C3=O)c1,-5.6,-4.5
CCO[C@H]1C[C@@H](c2ccc(CC)cc2)N(S(=O)(=O)c2ccc(C)cc2)C2CC(c3ccc(CC)cc3)N(S(=O)(=O)c3ccc(C)cc3)CC21 (stereo partly drawn),4.4,2.9
CSCCC(c1nc2ccccc2[nH]1)n1c(=O)c(-c2cc3ccccc3[nH]2)nc2ccccc21 (stereo not drawn),35.7,23.9
CO[C@@H]1CN(C)C(=O)c2cc(NC(=O)C3CC3)ccc2OC[C@H](C)N(C(=O)CN2CCOCC2)C[C@@H]1C,7.3,-0.4
COC(=O)C1=CN(c2ccc3c(c2)OCO3)C(N)=C(C#N)C1c1cccc(F)c1 (stereo not drawn),2.6,0.1
COC(=O)[C@@]12C[C@@H](CC(=O)NCc3ccc(OC)c(OC)c3)C(=O)N(Cc3ccc4c(c3)OCO4)C1=CCC(C)(C)C2,-4.7,-17.2
O=C(NC1CCCCC1)C(c1ccncc1)n1c(=O)c(-c2cc3ccccc3[nH]2)nc2ccccc21 (stereo not drawn),-16.3,44.7
COC(=O)[C@]12CCCCC=C1N(CCc1ccc(OC)c(OC)c1)C(=O)[C@H](CC(=O)NCc1ccc(C)o1)C2,-0.5,-12.4
COC(=O)C1=CN(c2ccc(N3CCOCC3)cc2)C(N)=C(C#N)C1c1ccccc1 (stereo not drawn),u,-12.5
O=C1C=C(OCCF)CC(c2cccc(Cl)c2)O1 (stereo not drawn),3.3,6.5
Cc1cccc(C)c1NC(=O)C1(C)CSCC(=O)N1Cc1cccc(F)c1 (stereo not drawn),-14.2,-4.1
O=C(C(O)c1ccccc1)N1CCN(S(=O)(=O)c2ccc(F)c(F)c2)CC1 (stereo not drawn),0.9,7.7
COc1ccc(NC(=O)C(c2ccccc2)n2c(=O)c(-c3cc4ccccc4[nH]3)nc3ccccc32)cc1 (stereo not drawn),17.7,32.7
COc1cc2c(cc1OC)/C(=C/C(=O)OCc1ccccc1)OC2,-24.9,-11.2
Cc1ccc(S(=O)(=O)N2C3CCCCC3O[C@H]2CC(=O)c2cccc3ccccc23)cc1 (stereo partly drawn),-15.2,5.2
Nc1sc(-c2ccccc2)cc1C(=O)N1CCNCC1,-26.3,-13.5
COc1ccc(NC(=O)C(C2CC2)n2c(=O)c(-c3ccco3)nc3ccccc32)cc1 (stereo not drawn),-3.9,-22.8
COC(=O)C[C@@H]1CC[C@@H](NC(=O)NC2CCCC2)[C@@H](CO)O1,-16.4,3.0
N#Cc1cccc(C(=O)C(=O)N2CCN(C(=O)OCc3ccccc3)CC2)c1,10.8,1.4
CCOC(=O)[C@]12CCCC=C1N(Cc1ccccc1)C(=O)[C@H](CC(=O)NCc1cccs1)C2,-17.1,-6.3
O=C1Nc2ccccc2-n2nnnc2C1N1CCN(c2ccc(C(F)(F)F)cn2)CC1 (stereo not drawn),-1.4,-1.8
O=C(NC1CCCC1)C(C1CC1)n1c(-c2ccncc2)nc2ccccc21 (stereo not drawn),1.1,-0.4
CCC(c1nc2ccccc2[nH]1)n1c(=O)c(-c2ccccc2)nc2ccccc21 (stereo not drawn),-2.0,-1.3
CCOC(=O)C1=CCN(S(=O)(=O)c2ccc(F)cc2)C1c1ccc(F)cc1 (stereo not drawn),3.4,7.2
CCC(C(=O)NC1CCCC1)n1c(C2CC2)nc2ccccc21 (stereo not drawn),3.2,2.3

# One compound at a time, from the list above. Values in the order: CtBP-E1A blk, Six1-Eya2 blk
# Shown for Cc1ccc(S(=O)(=O)N2C3CCCCC3O[C@H]2CC(=O)c2ccc(F)cc2)cc1 (stereo partly drawn) : -14.2, 9.4
# Shown for Cc1ccc(S(=O)(=O)N2C3CCCCC3O[C@H]2CC(=O)c2cccc3ccccc23)cc1 (stereo partly drawn) : -15.2, 5.2
